High-throughput results: PubChem BioAssay, several laboratories
rRNA inh HTS: inhibits bacterial ribosomal RNA function over humanized ribosomes. AID 720706. E. coli WT GFP vs humanized-ribosome RFP mutants, fluorescence, 24 h; active compounds read low; DMSO median 0, no signal -100. GFP signal change (wild-type ribosome), % (concentration not given with the values). hit rate 1.6% among 350,000;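 active means significant combined selectivity score with lowered wild-type GFP, culture density cut under 30%, mutant RFP and density less affected; inactive means any of these conditions unmet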; further: one replicate is shown; some compounds called inactive have numbers as strong as hits
MLL AF4-AF9 inh: blocks AF4 peptide binding to human AF9; P42568; inhibition, % at 10 µM; AID 651704; hit rate 0.47% among 350,000; AlphaScreen, biotin-AF4 peptide binding to FLAG-AF9;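 active means every replicate reaching a set inhibition limit, whatever the replicate mean, cut at about 25% in these data; inconclusive means mean inhibition reaches that limit but some replicates miss it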;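 further: 0% = plate neutral control median and 100% = total signal loss; the record names both 10 and 1 µM as test concentration; the first replicate is given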
Target sequence (P42568 whole entry, looked up): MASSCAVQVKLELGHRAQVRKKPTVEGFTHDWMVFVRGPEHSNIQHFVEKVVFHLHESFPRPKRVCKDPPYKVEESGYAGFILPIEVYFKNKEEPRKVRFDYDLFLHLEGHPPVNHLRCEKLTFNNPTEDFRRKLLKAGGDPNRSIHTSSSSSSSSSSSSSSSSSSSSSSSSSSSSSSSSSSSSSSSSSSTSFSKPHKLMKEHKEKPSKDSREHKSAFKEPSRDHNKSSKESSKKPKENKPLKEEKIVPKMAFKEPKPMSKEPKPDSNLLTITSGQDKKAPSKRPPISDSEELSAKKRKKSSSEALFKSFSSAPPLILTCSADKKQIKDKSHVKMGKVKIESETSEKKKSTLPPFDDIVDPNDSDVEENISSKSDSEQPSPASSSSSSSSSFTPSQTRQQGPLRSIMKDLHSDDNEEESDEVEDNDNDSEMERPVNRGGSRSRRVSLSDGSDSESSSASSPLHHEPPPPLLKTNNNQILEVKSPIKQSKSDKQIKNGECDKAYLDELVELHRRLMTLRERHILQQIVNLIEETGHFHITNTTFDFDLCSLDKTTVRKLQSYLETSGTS
Bfl-1 A1 inh: inhibitors of the anti-apoptotic protein A1, read as caspase activation; MEF A1-2A-BIM cells, Caspase-Glo 3/7 luminescence, 3 h; percent of clofoctol response, vehicle zero; caspase activation, % (concentration not given with the values); hit rate 0.066% among 330,000;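 active means over half of replicate activation scores above 10%, or exactly half above 10 with the replicate mean above 10; inconclusive means replicate mean below 10 yet half the replicates above 10; inactive means over half of replicates below 10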;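 further: wells of about 30 µL received 50 nL stock; many hits fall short of the cut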
Vif TR-FRET: HIV-1 Vif–A3G interaction blockers – biochemical, TR-FRET, GST-Vif 1-94, biotin-A3G peptide, dose response retest, primary screen (AID 1117319); TR-FRET GST-Vif / biotin-A3G peptide binding; higher % means a stronger effect; test concentration not given here; strong numbers were not always called active; inhibition, %, or IC50 in µM where a hit was titrated; hit rate 0.57% among 260,000;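 active means above the screen mean plus three standard deviations and confirmed in dose response; inconclusive means results disagree or hit not tested in dose response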;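 further: Vif residues 1-94 fused to GST binding biotinylated APOBEC3G peptide 110-148; 0% = full assay without inhibitor and 100% = GST in place of GST-Vif; retest series ran down from 100 µM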
Calb FLC: affects C. albicans growth with fluconazole. C. albicans CaCi-2 (fluconazole-resistant clinical isolate) + fluconazole, Alamar Blue growth, 48 h. growth inhibition, % (no concentration beside the values). hit rate 0.57% among 300,000. AID 1979;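 active means most replicates above 75%; inconclusive means exactly half above 75%; inactive means most below 75%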;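 further: all wells also contain fluconazole at 8 µg/ml as a sub-toxic cotreatment; 0% = median of DMSO wells and 100% = median of geldanamycin control wells; wells of about 8 µL received 7.5 nL stock; the first replicate is given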
T cruzi repl: blocks replication of Trypanosoma cruzi; AID 1885; T. cruzi beta-gal in NIH3T3, luminescence, 90 h; hit rate 1.4% among 300,000; inhibition, % (concentration not given with the values);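 active means mean inhibition across valid replicates above about 55%, limit read from the data; inconclusive means mean below that limit but half or more replicates reach it; inactive means mean below it, under half of replicates reach it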;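 further: signal also drops with host cell toxicity which is not excluded here; 0% = plate median of DMSO wells and 100% = zero luminescence signal; higher percent means less beta-gal luminescence so fewer parasites; stock transfer was 50 nL into about 50 µL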
Beta cell apopt: beta cell apoptosis inhibition. INS-1E cytokine-induced death, ATP luminescence, 48 h; percent of positive-control rescue, neutral wells zero. protection from apoptosis, % (test concentration not listed). hit rate 0.8% among 300,000. AID 435005;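 active means all replicates at 75% or more, or half of them and the mean; inconclusive means half reach 75% but not the mean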;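 further: 0% = cytokine-treated negative control wells and 100% = positive control rescue; higher means more ATP so stronger rescue from cytokine killing; wells of about 40 µL received 100 nL stock; the first replicate is given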
RanGTP-Imp inh: inhibitors of RanGTP-importin-beta interaction, primary screen, biochemical, FRET, CFP-Ran, YFP-importin-beta, homogeneous; cell-free CFP-Ran/YFP-importin-beta FRET ratio; hit rate 1.1% among 300,000; inhibition, % (concentration not given with the values);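 active means most replicates above 15%; inconclusive means exactly half above 15%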;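 further: 0% = DMSO wells and 100% = Ran loaded with GDP instead of GTP; wells of about 40 µL received 100 nL stock; the first replicate is given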
rRNA inh HTS OD600: further read-out of rRNA inh HTS, marked with its call; OD600 change, %; measured here: OD600 growth;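 optical density of the mix in the first replicate; 0 = DMSO median and -100 = no signal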
rRNA inh HTS RFP: also measured in rRNA inh HTS; calls as there; RFP signal change, %; measured here: RFP humanized mutant strains;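 first replicate; 0 = DMSO median and -100 = no signal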
* marks the source's active call; other numbers are inactive results; ? = inconclusive; nt = no result given. Only part of the results is shown; rates above refer to the full screens.

SMILES	rRNA inh HTS	rRNA inh HTS OD600	rRNA inh HTS RFP	MLL AF4-AF9 inh	Bfl-1 A1 inh	Vif TR-FRET	Calb FLC	T cruzi repl	Beta cell apopt	RanGTP-Imp inh
CCOc1ccc(CCNC(=O)COC(=O)COc2ccccc2C)cc1OCC	7	5	2.3	-2.2	-0.2	-3%	3	-1	-4	-2.6
CCCCCN(C(=O)CCC(=O)OCC(=O)N1CCCCC1C)c1c(N)n(CCCC)c(=O)[nH]c1=O (stereo not given)	-4	2	-3.1	-1.0	0.0	nt	-7	-4	-9	0.8
Cc1cc(C)c(NC(N)=S)c(C)c1	13	10	-0.9	-0.9	0.8	nt	-10	-18	-2	5.0
COCC(C)NC(=O)c1cc2cc(OC)ccc2[nH]1 (stereo not given)	5	4	1.0	3.2	2.6	13%	-4	-12	nt	-4.8
Cc1ccc(/C=C2/NC(=O)N(c3ccccc3)C2=O)o1	nt	nt	nt	nt	1.6	31%	25	-14	-6	2.2
COC(=O)CSc1nnc(CNC(=O)c2cccc(C)c2)n1-c1ccccc1OC	nt	nt	nt	nt	0.4	6%	3	-1	0	2.0
Cc1cc([N+](=O)[O-])cc2c1NC(=O)C2(O)N1CCCC(C)C1 (stereo not given)	10	10	1.3	-3.3	0.8	nt	0	3	-10	-3.8
Cc1cccc(NC(=O)c2cc3c(n(-c4ccccc4)c2=O)CCCC3=O)n1	nt	nt	nt	nt	nt	-1%	0	-6	nt	?
CC(=O)N1c2ccc(S(=O)(=O)NCC3CCC(C(=O)NCc4ccc(C)cc4)CC3)cc2CC1C (stereo not given)	-3	-7	5.0	0.1	0.3	2%	5	1	3	-0.1
COc1ccc(S(=O)(=O)Nc2ccc3cn[nH]c3c2)cc1[N+](=O)[O-]	4	9	-2.1	1.9	0.6	6%	nt	nt	-7	nt
Cn1c(=O)c2c(nc(CN3CCN(c4ccccc4)CC3)n2CCN2CCOCC2)n(C)c1=O	nt	nt	nt	nt	0.6	nt	12	-6	-24	4.5
Cc1ccc(C(=O)N2CCN(C3CCCCC3)CC2)s1	nt	nt	nt	nt	0.1	-7%	-17	10	0	?
COc1ccc(NC(=S)N(CCN(C)C)C(C)c2ccco2)cc1 (stereo not given)	16	5	2.3	6.9	1.1	nt	-13	-7	-11	4.6
c1ccc(N=P(N2CCOCC2)(N2CCOCC2)N2CCOCC2)cc1	nt	nt	nt	nt	0.4	13%	-12	1	1	1.8
O=C(CN1C(=O)C2CCCCN2C(=O)c2ccccc21)N1CCCc2ccccc21 (stereo not given)	nt	nt	nt	nt	-0.8	4%	-25	8	-2	-6.7
COCC(C)n1c(C)cc(C(=O)CSc2nnnn2C2CCCC2)c1C (stereo not given)	nt	nt	nt	1.4	-1.5	-1%	nt	nt	2	nt
CN1C(=O)c2ccccc2C(C(=O)O)C1c1cccc(Cl)c1 (stereo not given)	nt	nt	nt	nt	-0.1	13%	10	1	1	2.4
Cc1ccc(N=c2c([N+](=O)[O-])nn(-c3ccc4c(c3)OCCO4)n2O)c(Cl)c1	nt	nt	nt	nt	0.5	?	1	75*	0	nt
CCOC(=O)c1sc(SCc2ccccc2)c2c1CC(C)(C)CC2=O	1	3	-1.2	4.3	-1.2	nt	-18	36	7	-0.4
Cc1coc(C)c1C(=O)CC1(O)C(=O)N(C)c2ccc(Cl)cc21 (stereo not given)	-4	-1	-3.2	0.0	-0.4	nt	0	-3	-8	1.2
Cc1csc(NC(=O)c2cccc(Cn3nc(C)c(Br)c3C)c2)n1	nt	nt	nt	nt	-0.9	29%	14	1	-4	3.5
O=C1c2ccccc2C(=O)N1CN(C(=O)c1ccccc1[N+](=O)[O-])c1ccc(F)cc1	-11	2	-2.7	8.8	0.1	-5%	34	-7	-14	0.2
CS(=O)(=O)N(CC(=O)N/N=C/c1ccccc1C(=O)O)c1cccc(Cl)c1Cl	4	3	-1.3	-5.1	-0.3	21%	-11	-4	-6	-2.8
O=C1Nc2cc(C(=O)N3CCOCC3)ccc2SC1N1CCOCC1 (stereo not given)	nt	nt	nt	nt	0.6	-1%	-1	-2	-4	-0.7
O=C(NNC1=NCCCCC1)c1ccccc1	nt	nt	nt	nt	1.2	-3%	-19	-21	-8	0.3

Further entries:
SMILES	rRNA inh HTS	rRNA inh HTS OD600	rRNA inh HTS RFP	MLL AF4-AF9 inh	Bfl-1 A1 inh	Vif TR-FRET	Calb FLC	T cruzi repl	Beta cell apopt	RanGTP-Imp inh
COc1ccc(OCC(=O)NNC(=O)c2cc3ccccc3o2)cc1	6	16	3.1	2.5	?	-9%	3	6	2	3.3
CC(=O)Nc1ccc(C(=O)c2ccccc2)cc1	nt	nt	nt	nt	-0.4	-2%	-8	5	-5	3.3
O=C(Nc1c2c(nn1-c1ccc(F)cc1)CS(=O)(=O)C2)c1ccc(S(=O)(=O)N2CCOCC2)cc1	7	21	2.8	-2.2	1.9	11%	19	-2	0	1.1
COc1ccc(C(CNC(=O)C(CCSC)NC(=O)c2ccccc2Cl)N2CCCC2)cc1 (stereo not given)	9	10	-1.2	6.8	1.9	-10%	nt	nt	0	nt
O=C(O)CC(c1ccccc1F)N1Cc2ccccc2C1=O (stereo not given)	5	6	-1.9	-3.7	0.2	-4%	-3	-1	-8	?
COc1ccccc1C(=O)OCCN1CCOCC1	nt	nt	nt	nt	0.1	-1%	10	8	0	-0.4
COc1ccc(-n2nc3c(c2NC(=O)C(C)Oc2ccccc2)CS(=O)(=O)C3)cc1 (stereo not given)	3	7	2.3	-2.1	0.2	nt	-1	33	0	0.3
N#CC1(NC(=O)COC(=O)CN2C(=O)c3ccccc3C2=O)CCCCC1	10	5	-1.4	-0.2	?	1%	14	-14	3	-2.2
Fc1cccc(CN2CCN(c3nc4nonc4nc3NC3CC3)CC2)c1	nt	nt	nt	3.4	1.3	nt	6	2	-3	0.2
CCN1C(=O)N[C@@H](CCc2ccccc2)C(C(C)=O)=C1C	11	10	-1.9	-0.1	0.0	nt	-5	-1	-7	-3.8
CCN1C(=O)[C@H]2[C@@H](c3ccc(C)cc3)N3C(=O)N(c4ccccc4)C(=O)[C@@]3(Cc3ccc(Cl)cc3)[C@H]2C1=O	nt	nt	nt	nt	0.0	nt	17	37	1	1.3
O=C(O)c1cccc(S(=O)(=O)Nc2ccc3[nH]c(=O)[nH]c3c2)c1	9	2	-1.2	-29	0.2	?	4	-2	0	16*
Cc1ccc(N2C(=O)CC(N(CCc3ccccc3)C(=S)Nc3ccc(N(C)C)cc3)C2=O)cc1 (stereo not given)	nt	nt	nt	nt	0.0	7%	-19	13	3	-0.7
COC(=O)CC1c2ccccc2S(=O)(=O)N1Cc1ccccc1 (stereo not given)	nt	nt	nt	nt	-2.7	-3%	-4	-12	nt	-0.6
CCCc1cc(C(=O)NCc2ccccc2)no1	2	11	-1.8	2.4	nt	0%	0	-8	-8	-0.5
CS(=O)(=O)N(CC(=O)N/N=C/c1ccco1)c1ccccc1Br	nt	nt	nt	1.0	1.2	4%	5	1	-4	?
CCc1nn(C(C)C(=O)NCCN2CCCCCC2)c(=O)c2cc3occc3n12 (stereo not given)	-3	3	2.7	1.6	0.4	-5%	6	6	-1	-2.3
CCOc1ccccc1NC(=O)Cn1c(=O)n(-c2ccccc2)c(=O)c2oc3ccccc3c21	nt	nt	nt	nt	-0.3	2%	-3	0	-5	-1.5
Cc1cc(-c2cc(C(=O)Nc3ccccc3)on2)nc(NC2CCCC2)n1	nt	nt	nt	nt	-0.8	nt	-2	-11	5	5.5
Cc1cccc(C)c1OC(=O)C(c1ccccc1)c1ccccc1	6	4	0.0	-6.4	0.1	-4%	-13	3	0	0.0
O=C(Cc1ccccc1)N/N=C/c1ccc(-c2ccc([N+](=O)[O-])cc2)o1	nt	nt	nt	nt	-0.5	2%	-1	16	2	-7.5
Cc1nc(Nc2ccccc2C(F)(F)F)sc1C(=O)N(C)C	-9	-12	-7.9	-0.7	0.4	3%	3	-2	2	3.4
Cc1cc(O)ccc1NC(=S)NC(=O)c1cncc(Br)c1	-15	-14	-3.3	-8.0	0.6	nt	87*	-33	6	-1.3
